High-throughput results deposited in PubChem by ICCB-Longwood Screening Facility, Harvard Medical School.
Mtb MenB inh – Mtb MenB enzyme inhibition | P9WNP5 | MenB enzyme assay, absorbance read-out; some hits fall short of the stated cut | inhibition, %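 (about 12 µg/mL by stock and volumes)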 | 100,000 tested, 0.43% active | AID 540299;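 active = mean of two replicates above 30%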;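 note: 0% = no compound and 100% = wells with inactive enzyme; the first replicate is given; strong numbers were not always called active; inactives centre near -10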
Target sequence (P9WNP5 whole entry, looked up): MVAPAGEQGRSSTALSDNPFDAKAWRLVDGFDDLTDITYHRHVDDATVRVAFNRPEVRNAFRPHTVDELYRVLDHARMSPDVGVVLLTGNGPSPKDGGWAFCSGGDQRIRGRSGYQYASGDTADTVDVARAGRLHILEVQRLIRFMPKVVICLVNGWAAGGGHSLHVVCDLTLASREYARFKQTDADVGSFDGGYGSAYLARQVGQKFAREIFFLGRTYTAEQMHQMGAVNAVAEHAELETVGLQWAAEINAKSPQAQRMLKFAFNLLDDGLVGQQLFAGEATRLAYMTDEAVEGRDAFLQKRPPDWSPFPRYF
Polio RdRp inh – poliovirus RNA polymerase inhibition; P03300; poliovirus polymerase elongation, fluorescence polarization; hits give low values; % elongation, % (compound at 16.7 µg/mL); 150,000 tested, 0.66% active; AID 588519; in the data active = % elongation below about 90%; note: some results filed as inactive read as strong as hits
Target sequence (P03300 1749-2209 limits assumed): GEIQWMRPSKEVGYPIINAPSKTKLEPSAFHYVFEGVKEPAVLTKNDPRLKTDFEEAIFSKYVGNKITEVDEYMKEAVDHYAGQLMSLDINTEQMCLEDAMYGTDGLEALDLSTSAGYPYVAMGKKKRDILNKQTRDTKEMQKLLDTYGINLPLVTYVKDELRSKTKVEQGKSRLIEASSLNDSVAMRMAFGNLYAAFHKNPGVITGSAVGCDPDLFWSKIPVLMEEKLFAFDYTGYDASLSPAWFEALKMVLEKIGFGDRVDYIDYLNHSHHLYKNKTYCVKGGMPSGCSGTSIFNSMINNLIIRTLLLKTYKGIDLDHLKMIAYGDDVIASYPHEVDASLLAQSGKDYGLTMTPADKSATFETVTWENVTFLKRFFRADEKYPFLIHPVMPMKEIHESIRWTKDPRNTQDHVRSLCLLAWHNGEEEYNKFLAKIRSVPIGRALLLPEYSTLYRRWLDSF
Mtb MbtI inh – MbtI salicylate synthase inhibition | 100,000 tested, 0.89% active | purified MbtI enzyme, fluorescence intensity read-out | P9WFX0 | AID 493033 | inhibition, %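 (about 17 µg/mL by stock and volumes)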;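 active = above 50% in both replicates, above 80% if mildly self-fluorescent; inactive = the rest, strongly fluorescent compounds included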;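 note: 0% = mean of negative and 100% = mean of positive controls; one replicate is shown; some compounds called inactive have numbers as strong as hits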
Polio RdRp inh intensity – recorded beside Polio RdRp inh, whose call it bears; % elongation; measured here: total intensity read-out; formula for this scale not given here;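 total fluorescence in place of polarization; lower means less elongation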
* marks the source's active call; other numbers are inactive results; / = no result given; & = joins results of further samples. Random draw from the library (roughly 1.8% active in at least one column).

SMILES | Mtb MenB inh | Polio RdRp inh | Polio RdRp inh intensity | Mtb MbtI inh
CN1C(N)=NC(=O)/C1=C/c1coc2ccccc2c1=O | -37 | 103 | 103 | 4
COC(=O)c1c2n(c3ccccc3c1=O)CCCS2 | 18 | 101 | 105 | 17
CCCCOc1ccc(C(=O)NCCOC)cc1 | -31 | 104 | 102 | -9
CCCNC(=O)CSc1nc2nc(C)c(Cc3cccc(C)c3)c(C)n2n1 | -30 | 102 | 95 | 4
COc1ccc(C(=O)N=c2nc3ccccn3s2)cc1 | 1 | 100 | 102 | -2
COC(=O)CC1SC(=O)NC1=Nc1ccc(O)cc1 (configuration not stated) | -8 | 102 | 103 | 2
N=C1C(c2nc3ccccc3[nH]2)=C(O)CN1c1ccccc1 | 9 | 102 | 102 | 19
CCOC(=O)/C(C#N)=C/c1cn(-c2ccccc2)nc1-c1cccnc1 | -43 | 104 | 105 | 102
Cn1c(C(=O)N2CCN(c3ccccc3F)CC2)cc2c(=O)[nH]c3ccccc3c21 | -3 | 101 | 101 | 12
CC(=O)Nc1ccc(Oc2nc(C)cc(C)n2)cc1 | 2 | 98 | 100 | -7
C=CCn1c(=O)c(C(=O)NCc2cccnc2)c(O)c2ccccc21 | -29 | 109 | 112 | /
O=S1(=O)CC(S(=O)(=O)c2ccccc2)c2ccccc21 (configuration not stated) | -5 | 99 | 98 | -5
N=C1/C(=C\c2cccn2Cc2ccccc2)C(=O)N=C2SC(N3CCCCC3)=NN12 | -28 | 101 | 102 | -7
N#CC1(c2ccccc2)CCCN1C(=O)c1ccco1 (configuration not stated) | -12 | 104 | 104 | -18
CCC1(C)N(O)C(C)C(c2ccccc2)=[N+]1[O-] (configuration not stated) | 13 | 103 | 102 | 8
COC(=O)c1ccc(COC(=O)CN2C(=O)C3CC=CCC3C2=O)cc1 (configuration not stated) | -13 | 102 | 105 | -16
CCOC(=O)c1sc(SC)c2c1CC(c1ccc(OC)cc1)CC2=O (configuration not stated) | -25 | 109 | 107 | 0
O=C(/C=C/c1ccc(OC(F)F)cc1)OC1CCCC1=O (configuration not stated) | 14 | 100 | 95 | 8
COc1ccc(/C=c2\s/c(=C\C#N)n(C)c2=O)cc1 | -18 | 113 | 120 | 4
O=C(N1CCOCC1)N1CCN(S(=O)(=O)c2ccccc2)C1 | 2 | 104 | 105 | -5
Cc1ccc(-n2c(SCc3nc(N)nc(N)n3)nnc2-c2ccccc2)cc1C | -11 | 111 | 112 | -15
COc1cccc(-c2nnn(-c3nc(CN4CCCCC4)nc4sc5c(c34)CCCC5)n2)c1 | -8 | 106 | 103 | 4
O=C(OC(Cc1ccccc1)C(F)(F)F)c1ccc(Cl)cc1Cl (configuration not stated) | -16 | 104 | 116 | -13
Cc1ccnc(SCC(=O)N2N=CCC2c2ccccc2)n1 (configuration not stated) | -16 | 102 | 104 | -7
O=C1CC(c2ccccc2)CN1Cc1ccccc1 (configuration not stated) | -2 | 98 | 95 | -3
Cc1ccc(-c2nc3ccccc3s2)cc1NC(=O)c1ccccc1 | 8 | 100 | 97 | 34
C=CCC(O)(CN)CC=C | 32* | 103 | 103 | 1
CCc1cc2c(=O)c(-c3csc(C)n3)coc2cc1OC(C)C(=O)O (configuration not stated) | -15 | 98 | 101 | /
CC(C)NC(=O)c1nc(-c2cccc(F)c2)n2c1CCCCC2 | -20 | 105 | 108 | -1
Cc1ccc2c(c1)N(C(C)C(=O)O)C(=O)CO2 (configuration not stated) | -6 | 102 | 100 | -2
O=c1cc(-c2ccccc2)nc(Nc2nc3ccccc3o2)[nH]1 | -30 | 68* | 60* | 4
O=C(COC(=O)c1cccc(S(=O)(=O)N2CCCCC2)c1)Nc1ccccc1 | -14 | 104 | 109 | 0
Cn1c[n+](/N=C(/[O-])c2ccc(C(=O)ON3C(=O)CCC3=O)cc2)cn1 | -11 | 102 | 72 | /
COc1ccc(Nc2nc(N)nc(CN3CCC(C)CC3)n2)cc1 | -9 | 100 | 101 | -2
O=C(NC1CC1)c1cc(=O)c2ccccc2o1 | / | 103 | 104 | -5
O=C(OCc1c(Cl)cccc1Cl)c1ccccn1 | / | 106 | 108 | -14
CC(=O)N1CCCC(C(=O)O)C1 (configuration not stated) | -16 | 104 | 105 | -2
C1=C(c2c[nH]c3ccccc23)CC(c2ccccc2)=NN=C1c1ccccc1 | -34 | 105 | 106 | /
O=C1c2ccccc2S(=O)(=O)N1CCS(=O)(=O)c1ccc(Cl)cc1Cl | 12 | 102 | 106 | 8
CCCNC(=O)c1nc(-c2ccc(Cl)cc2)n2c1CCCCC2 | -28 | 105 | 98 | -7
C/C(=N\O)C(=O)c1ccc(Cl)cc1 | -11 | 98 | 94 | -3
CC(C)=CCC/C(C)=C/CC/C(C)=C/CSCC(=O)O | 1 | 97&98 | 104&103 | -10
CN1CC(C(=O)Nc2ccc(I)cc2)CC1=O (configuration not stated) | -2 | 100 | 103 | 0
O=C1c2ccccc2C(=O)N1CN(C(=O)c1ccccc1)c1ccc(O)cc1 | -7 | 104 | 101 | -4
COc1ccc(I)cc1S(=O)(=O)N1CCOCC1 | 5 | 100 | 98 | 8
C/C(=N\OCC(=O)N1CCN(c2ccccc2)CC1)c1ccccc1 | -17 | 97 | 90 | 11
COc1ccc(Cc2nnc3n2N=C(N)CS3)cc1 | 8 | 100 | 101 | -6
Nc1scc[n+]1Cc1cccc2cccnc12 | / | 101 | 107 | 2

Part of the list above in a different format:
> C/C(=N\OCC(=O)N1CCN(c2ccccc2)CC1)c1ccccc1
  Mtb MenB inh: -17 | Polio RdRp inh: 97 | Polio RdRp inh intensity: 90 | Mtb MbtI inh: 11

> COc1ccc(Cc2nnc3n2N=C(N)CS3)cc1
  Mtb MenB inh: 8 | Polio RdRp inh: 100 | Polio RdRp inh intensity: 101 | Mtb MbtI inh: -6

Next results.
SMILES | Mtb MenB inh | Polio RdRp inh | Polio RdRp inh intensity | Mtb MbtI inh
CCn1cc(C(=O)N(Cc2ccc(F)cc2)C2CCCCC2)c(=O)c2ccc(C)nc21 | -2 | 100 | 101 | 24
Cc1ccc(Cn2c(CN3CC(C)OC(C)C3)nc3c2c(=O)[nH]c(=O)n3C)cc1 (configuration not stated) | -17 | 101 | 96 | -10
CC(C)NC(=O)Nc1ccccc1C(=O)N=c1sc2ccccc2n1C | -20 | 103 | 109 | -4
CN(C)c1ccc2cc(C(=O)O)[nH]c2c1 | -24 | 97 | 101 | 90
CCc1ccc(S(=O)(=O)NCCc2csc(C)n2)cc1 | -12 | 100 | 102 | 4
CC1CCN(C(c2ccccc2)c2nnnn2Cc2ccc(F)cc2)CC1 (configuration not stated) | 21 | 101 | 100 | -5
COc1ccc(-c2ocnc2C(=O)NCc2nn(-c3ccccc3)nc2C)cc1 | 9 | 100 | 115 | 80
O=S(=O)(NC1CCCC1)c1cccc(S(=O)(=O)N2CCCCC2)c1 | -44 | 104 | 100 | -11
Brc1ccc2ncnc(Nc3ccc(N4CCCC4)cc3)c2c1 | -73 | 101 | 102 | -7
O=C(CC(SCc1ccc(Cl)cc1)C(=O)O)c1ccc(Cl)cc1 (configuration not stated) | 5 | 96 | 99 | /
O=C1c2ccccc2C(=O)N1c1ccc(Cl)cc1 | -21 | 102 | 107 | -11
CC(C)(C)OC(=O)N1CCN(C2CC(=O)N(c3ccccc3)C2=O)CC1 (configuration not stated) | -3 | 103 | 102 | 5

Arranged by molar mass (rising): part of the list above.
SMILES | Mtb MenB inh | Polio RdRp inh | Polio RdRp inh intensity | Mtb MbtI inh
CN(C)c1ccc2cc(C(=O)O)[nH]c2c1 | -24 | 97 | 101 | 90
O=C1c2ccccc2C(=O)N1c1ccc(Cl)cc1 | -21 | 102 | 107 | -11
CC(C)(C)OC(=O)N1CCN(C2CC(=O)N(c3ccccc3)C2=O)CC1 (configuration not stated) | -3 | 103 | 102 | 5
COc1ccc(-c2ocnc2C(=O)NCc2nn(-c3ccccc3)nc2C)cc1 | 9 | 100 | 115 | 80
CCn1cc(C(=O)N(Cc2ccc(F)cc2)C2CCCCC2)c(=O)c2ccc(C)nc21 | -2 | 100 | 101 | 24

Further compounds follow:
SMILES | Mtb MenB inh | Polio RdRp inh | Polio RdRp inh intensity | Mtb MbtI inh
COC(=O)c1cnn(C(=O)Nc2c(C)cccc2C)c1C(OC)OC | -12 | 101 | 103 | -6
Nn1c(SCc2cc(=O)n3ccsc3n2)nnc1-c1ccc(Cl)cc1Cl | -31 | 101 | 133 | 43
O=C(COC(=O)CCc1nnc(-c2ccccc2)o1)Nc1ccc(F)cc1 | -32 | 105 | 108 | 3
C=C(C)c1cccc(C(C)(C)NC(=O)N2c3ccc(F)cc3CCC2C)c1 (configuration not stated) | -6 | 103 | 98 | 54
CC(Sc1ccccc1)C(=O)Nc1ccc(N2CCOCC2)cc1 (configuration not stated) | 3 | 104 | 99 | 20
CCN1C(=O)C(O)(c2c[nH]c3ccccc23)c2ccccc21 (configuration not stated) | 3 | 100 | 101 | -5
CCOC(=O)c1cccc(-c2ccc(/C=C3\C(=N)N4N=C(N5CCCC5)SC4=NC3=O)o2)c1 | -7 | 101 | 103 | -4
Cc1cc(=O)[nH]c2nnc(SCC(=O)NC(C)C)n12 | 4 | 99 | 106 | 14
COc1cccc(OC)c1C(=O)Nc1ccccc1NC(=O)c1c(OC)cccc1OC | -17 | 104 | 108 | -4
Cc1noc(C)c1C(=O)NCCC12CC3CC(CC(C3)C1)C2 | -19 | 99 | 101 | 9
CC(=O)N(CCc1ccccc1)C1CC(=O)N(c2ccccc2)C1=O (configuration not stated) | -17 | 102 | 95 | 4
N#Cc1ccccc1NC(=O)COC(=O)c1ccccc1I | 2 | 107 | 109 | -5

5 compounds drawn at random from those above:
SMILES | Mtb MenB inh | Polio RdRp inh | Polio RdRp inh intensity | Mtb MbtI inh
CCN1C(=O)C(O)(c2c[nH]c3ccccc23)c2ccccc21 (configuration not stated) | 3 | 100 | 101 | -5
COC(=O)c1cnn(C(=O)Nc2c(C)cccc2C)c1C(OC)OC | -12 | 101 | 103 | -6
Cc1noc(C)c1C(=O)NCCC12CC3CC(CC(C3)C1)C2 | -19 | 99 | 101 | 9
O=C(COC(=O)CCc1nnc(-c2ccccc2)o1)Nc1ccc(F)cc1 | -32 | 105 | 108 | 3
CC(=O)N(CCc1ccccc1)C1CC(=O)N(c2ccccc2)C1=O (configuration not stated) | -17 | 102 | 95 | 4

Next results
SMILES | Mtb MenB inh | Polio RdRp inh | Polio RdRp inh intensity | Mtb MbtI inh
CCNc1c2c(nc3ccccc13)CC(C)(C)CC2=O | -9 | 101 | 97 | 6
Cc1cccc(NC(=O)CSc2ccc3ccccc3c2)n1 | / | 103 | 102 | 4
CC1CCc2sc(C(=O)OC3CCCCC3=O)cc2C1 (configuration not stated) | 7 | 108 | 100 | 10
Cc1nnc(C)n1/N=C\c1cccc(O)c1 | / | 101 | 98 | 1
Cc1ccc2c(c1)C(c1ccccc1)NCC(=O)N2 (configuration not stated) | 1 | 100 | 102 | -3
CCOc1ccccc1NC(=O)CSc1nnc(C(CO)NC(=O)c2ccc(OC)cc2)n1C (configuration not stated) | -5 | 97 | 99 | 6
O=C(Cn1ncc2c(=O)oc3ccccc3c21)N1CCN(C2CCCCC2)CC1 | -2 | 103 | 100 | 16
CN(c1ccccc1)S(=O)(=O)c1ccc2[nH]c(=O)oc2c1 | -35 | 102 | 103 | -16
CCOC(=O)c1[nH]c(COC(C)=O)cc1C | -8 | 106 | 109 | /
O=C1OC(Nc2ccccn2)c2ccccc21 (configuration not stated) | -46 | 104 | 101 | 40
Cc1cc(=O)n2nc(N3CCCC3C(=O)Nc3cccc(F)c3)sc2n1 (configuration not stated) | -2 | 102 | 107 | -7
CS[C@H](C)[C@H](OC(C)=O)C(=O)N(C)CCN(C)C (tested in a mixture with another compound) | -6 | 99 | 103 | /
CCNc1nc(NCC)n2c(SC(C)C(=O)c3ccc(C)cc3)nnc2n1 (configuration not stated) | -34 | 105 | 104 | 4
Cc1cc(C)c2[nH]c(=O)c(CN(CC3CCCO3)C(=O)NC3CCCCC3)cc2c1 (configuration not stated) | 26 | 102 | 103 | -27
COC(=O)CCC(=O)Nc1ccc(S(=O)(=O)Nc2cc(C)cc(C)c2)cc1 | -21 | 108 | 113 | /
COc1ccc(/C=C/C(=O)O)cc1S(=O)(=O)N1CCCC1 | 12 | 102 | 102 | 14
O=C1c2ccccc2C(O)N1c1cccnc1 (configuration not stated) | -2 | 99 | 96 | 4

Some of the entries so far, with tabs.
mol	Mtb MenB inh	Polio RdRp inh	Polio RdRp inh intensity	Mtb MbtI inh
COC(=O)CCC(=O)Nc1ccc(S(=O)(=O)Nc2cc(C)cc(C)c2)cc1	-21	108	113	/
COc1ccc(/C=C/C(=O)O)cc1S(=O)(=O)N1CCCC1	12	102	102	14
